miR-21 FLuc = miR-21 reporter, rising signal; HeLa miR-21 FLuc reporter, luciferase, 48 h; 340,000 tested, under 10 active; Potency, µM (top dose mostly 38.3 µM), for the others: at the top dose reporter change, positive = more light; active = well fitted rising curve with a large enough effect; inconclusive = small, poorly fitted or top-dose-only effect; inactive = no such curve, though single readings can be large or run the other way;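 also: % of control where 0% means no effect; miR-21 action dims this reporter so a rising signal means less miR-21 action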
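HeLa cells stably expressing CMV-driven firefly luciferase with a downstream miR-21 binding sequence, endogenously expressing miR-21, were treated with titrations (up to about 40uM final) for 48 hours at 37 degree Celsius. Luciferase luminescence was read after lysis.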
Active calls of the source: *; ? = inconclusive. Some of the compounds tested; count on the stated rates, not on these rows.

miR-21 FLuc | mol
4% | Cc1cccc(-c2nc(SCc3cc(=O)c4cccc(F)c4[nH]3)n[nH]2)c1
-73% | COc1ccc(-c2cc(C(F)(F)F)nc(SCC(=O)Nc3ccc(O)cc3)n2)cc1OC
3% | COc1cccc(CSc2nc3n(n2)C(c2cccs2)C(C(=O)Nc2ccccc2C)=C(C)N3)c1 (stereo not drawn)
-1% | COc1ccccc1Nc1nn2c(=O)c3ccc(C(=O)Nc4ccc(F)cc4)cc3nc2s1
-81% | Fc1ccc(-c2cc(-c3nc(-c4ccccc4)no3)[nH]n2)cc1
0% | COC(=O)c1ccc(NC(=O)Cn2c(=O)nc(-c3ccccc3)c3ccccc32)cc1
-3% | Cc1ccc(C(=O)n2nc(C)c(S(=O)(=O)N3CCCCCC3)c2C)cc1C
-7% | COc1ccc(C(=O)Nc2ccc3oc(-c4ccc(F)cc4Cl)nc3c2)cc1
-7% | Cc1ccccc1Cn1c(=O)n(CCCCC(=O)NCCc2ccccc2)c(=O)c2ccccc21
-2% | Cc1ccc(C(c2sc3nc(-c4ccco4)nn3c2O)N2CCC3(CC2)OCCO3)cc1 (stereo not drawn)
-8% | Cc1ccc(NC(=O)CSc2nc(-c3ccco3)nc3cc(=O)[nH]n23)cc1
-1% | COc1ccc(-c2nc(S(=O)(=O)c3ccccc3)c(N3CCC(C)CC3)o2)cc1
-1% | Clc1ccccc1CNc1nc2ccccc2c2nc(-c3ccccc3)nn12
0% | Cc1ccc(CNC(=O)Cn2c(=O)n(Cc3ccc(F)cc3)c(=O)c3sc4ccccc4c32)cc1
24% | CCc1ccc(C2=NN(CCC(=O)NCCc3ccc(Cl)cc3)C(=O)CC2)cc1
-26% | CC(CNC(=O)c1csc2c1CCCCC2)c1ccccc1 (stereo not drawn)
20% | Cc1cccc(C(=O)Nc2ccc(S(=O)(=O)N3CCCCC3c3cccnc3)cc2)c1 (stereo not drawn)
-5% | COc1ccccc1CNC(=O)c1cnc2sc(N3CCOCC3)nn2c1=O
-15% | O=C(NCC(c1ccco1)S(=O)(=O)c1cccs1)c1ccccc1F (stereo not drawn)
-6% | COc1cc(OC)c(NC(=O)CCc2c(C)nc3c4c(C)cc(C)nc4nn3c2C)cc1Cl
-3% | COc1ccccc1N1CCN(c2cc(C)nc3nc(-c4ccc(Cl)cc4)nn23)CC1
-6% | N#C/C(=C\c1cc(Br)c(O)c(Br)c1)c1nc2ccccc2c(=O)[nH]1
29% | CCCCN(CC)C(=O)CSc1nc2n[nH]c(C)c2c(=N)n1-c1ccc(CC)cc1
-1% | COc1ccc(OC)c(CCNC(=O)Cn2nc(C)n3c(cc4sccc43)c2=O)c1
-2% | COc1ccc(C(=O)CSc2nc3cc(C(=O)NC4CCCC4)ccc3c(=O)n2CC2CCCO2)cc1 (stereo not drawn)
1% | Cc1ccccc1CNC(=O)c1cnc2sc(N3CCC(C)CC3)nn2c1=O
23% | CCC(=O)N1c2ccc(S(=O)(=O)CCC(=O)NCc3ccc(OC)cc3)cc2CC1C (stereo not drawn)
-2% | Cc1ccc(C)c(NC(=O)Cn2c(=O)n(Cc3ccc4c(c3)OCO4)c(=O)c3ccccc32)c1
1% | O=C(Cn1c(-c2cccs2)cc2cc(F)ccc21)N1CCN(c2cccc(Cl)c2)CC1
-4% | Cc1ccc2oc(=O)n(CCNC(=O)Nc3ccc(C)c(F)c3)c2c1
-2% | COc1cccc(-c2oc3ccc(C)cc3c(=O)c2O)c1
1% | COc1ccccc1N1CCN(S(=O)(=O)c2ccc3c(c2)CCCN3C(C)=O)CC1
-1% | COCCN(CCOC)c1ncnc2c1c(-c1ccccc1)cn2-c1ccc(C)c(Cl)c1
7% | CCOc1ccc(S(=O)(=O)N(CC(=O)NCCSc2ccccc2)c2ccccc2)cc1
-35% | O=C(COC(=O)c1cccc(NC(=O)c2ccc(Br)cc2)c1)c1ccc(Cl)cc1
13% | COc1ccc(NC(=O)Cn2ncc3c2-c2ccccc2OC3)cc1Cl
5% | COc1ccc(C(CNC(=O)COc2ccc(C)cc2)N2CCCCC2)cc1 (stereo not drawn)
14% | Cc1csc2nc(COC(=O)c3cccc(NC(=O)COc4ccccc4Cl)c3)cc(=O)n12
-6% | Cn1c(SCc2cc(=O)c3cc(Cl)ccc3[nH]2)nnc1-c1ccccc1
-13% | Cc1nn2c(-c3cccc(NC(=O)c4ccc(Cl)cc4)c3)nnc2c2ccccc12
-1% | CCc1ccccc1NC(=O)C(C)n1nc(-c2ccc(C)c(C)c2)ccc1=O (stereo not drawn)
1% | Cc1ccc(CNc2nc3c(S(=O)(=O)c4ccccc4)nnn3c3ccsc23)cc1
0% | O=C(CSc1n[nH]c(-c2ccc(F)cc2)n1)NCCc1ccccc1
1% | COC(=O)c1ccccc1NC(=O)Cn1c(=O)n(-c2cccc(C(F)(F)F)c2)c(=O)c2c(C)c(C)sc21
? | CCCCN(CC)C(=O)Nc1ccc2c(c1)N(C)C(=O)c1ccccc1S2
-3% | Cc1ccc(CNc2ncnc3c2c(-c2ccccc2)cn3-c2cccc(Cl)c2)cc1
-10% | CCCCC(=O)Nc1ccc(OCc2cc(=O)n3c(C)csc3n2)cc1
-28% | Cc1ccc(S(=O)(=O)c2nnn3c2nc(N2CCOCC2)c2sccc23)cc1C
-2% | CCN(CC)C(=O)Cn1c(=O)n(CCCCCC(=O)NCc2ccc(C)cc2)c(=O)c2sccc21
6% | COc1ccc(N2CCN(S(=O)(=O)c3c(C)nc4sc(C)cn4c3=O)CC2)cc1
13% | O=C(CSc1nc2cc(C(=O)NC3CCCC3)ccc2c(=O)n1CC1CCCO1)c1cccc(Cl)c1 (stereo not drawn)
3% | CC(C)CCNC(=O)c1cc(Sc2ccc(F)cc2F)nc2ccccc12
-2% | Cc1ccc(OCCCn2c(-c3ccc(Cl)cc3)nc3ccccc3c2=O)c(C)c1
-5% | COc1ccc(CCn2c3c(c(=O)[nH]c2=O)C(NC(=O)c2ccc(C(C)(C)C)cc2)(C(F)(F)F)C(=O)N3)cc1OC (stereo not drawn)
3% | Cc1ccc(S(=O)(=O)Nc2cc3c(C(=O)OCc4ccccc4)c(C)oc3c3ccccc23)cc1
-8% | O=C(COc1ccc(Cl)cc1Cl)Nc1cccc2cccnc12
2% | CC(C)(C)c1ccc(Oc2nc3ccccn3c(=O)c2/C=C(\C#N)c2nc3ccccc3[nH]2)cc1
1% | Cc1ccccc1NC(=O)CCn1nc(-c2ccccc2)c2ccccc2c1=O
-6% | CCc1ccc(C2c3c(oc4ccc(F)cc4c3=O)C(=O)N2CCc2ccc(OC)cc2)cc1 (stereo not drawn)
-7% | Cc1ccccc1C(=O)Nc1nc2c(s1)CC(C(C)(C)C)CC2 (stereo not drawn)

Part of the list above, as labelled records.
Cc1ccccc1CNC(=O)c1cnc2sc(N3CCC(C)CC3)nn2c1=O
  miR-21 FLuc = 1%

CCC(=O)N1c2ccc(S(=O)(=O)CCC(=O)NCc3ccc(OC)cc3)cc2CC1C (stereo not drawn)
  miR-21 FLuc = 23%

New compounds follow
miR-21 FLuc | mol
-3% | CCc1ccccc1NC(=O)CCCSc1nc(-c2ccco2)cc(C(F)(F)F)n1
-2% | COc1ccc(OCC(=O)Nc2ccc(C(=O)OCc3cc(=O)n4nc(C)sc4n3)cc2)cc1
-10% | COc1cc(NC(=O)C(CC(C)C)NS(=O)(=O)c2ccc3c(c2)CCN3C(C)=O)cc(OC)c1 (stereo not drawn)
-9% | CC(=O)c1ccc(NC(=O)CCc2c(C)nc3c(c2C)c(=O)n(C)c(=O)n3C)cc1
-1% | COc1ccc(OC)c(CNS(=O)(=O)c2cc(-c3onc(C)c3C)ccc2C)c1
-1% | Cc1oc2c(c(C)cc3oc(=O)c(CC(=O)NCC(=O)NCC(=O)O)c(C)c32)c1C
5% | CCOc1ccc(CCNC(=O)c2cc3c(=O)n(C)c4ccccc4c3n2C)cc1
-4% | CCC(Cc1ccccc1)NC(=O)CN1C(=O)COc2ccc(S(=O)(=O)N3CCCCCC3)cc21 (stereo not drawn)
-10% | COc1cccc2cc(C(=O)Nc3ccc(F)c(F)c3)c(=O)oc12
-9% | COc1ccc(-n2nc(C(=O)NCCc3ccc(OC)c(OC)c3)c3c4ccccc4n(C)c3c2=O)cc1
2% | Cc1ccccc1N(C)C(=O)c1noc2c1COc1ccccc1-2
30% | CCOc1ccc(CNC(=O)Cn2cc3c(n2)-c2c(oc(C(=O)N4CCCC4)c2C)CC3)cc1
? | O=C(CCn1cnnn1)Nc1cc(C(F)(F)F)cc(C(F)(F)F)c1
-27% | COc1ccc(NC(=O)Nc2sc3nc4n(c(=O)c3c2C)CCC(C)CC4)cc1OC (stereo not drawn)
1% | Cc1ccccc1NC(=O)CSC1=Nc2ccccc2C2=NC(CCC(=O)NCc3ccccc3)C(=O)N12 (stereo not drawn)

A portion taken from the entries so far:
miR-21 FLuc | mol
-3% | CCc1ccccc1NC(=O)CCCSc1nc(-c2ccco2)cc(C(F)(F)F)n1
-2% | COc1ccc(OCC(=O)Nc2ccc(C(=O)OCc3cc(=O)n4nc(C)sc4n3)cc2)cc1
-10% | COc1cc(NC(=O)C(CC(C)C)NS(=O)(=O)c2ccc3c(c2)CCN3C(C)=O)cc(OC)c1 (stereo not drawn)
-9% | CC(=O)c1ccc(NC(=O)CCc2c(C)nc3c(c2C)c(=O)n(C)c(=O)n3C)cc1
-1% | COc1ccc(OC)c(CNS(=O)(=O)c2cc(-c3onc(C)c3C)ccc2C)c1
-1% | Cc1oc2c(c(C)cc3oc(=O)c(CC(=O)NCC(=O)NCC(=O)O)c(C)c32)c1C
5% | CCOc1ccc(CCNC(=O)c2cc3c(=O)n(C)c4ccccc4c3n2C)cc1
-4% | CCC(Cc1ccccc1)NC(=O)CN1C(=O)COc2ccc(S(=O)(=O)N3CCCCCC3)cc21 (stereo not drawn)
-10% | COc1cccc2cc(C(=O)Nc3ccc(F)c(F)c3)c(=O)oc12
-9% | COc1ccc(-n2nc(C(=O)NCCc3ccc(OC)c(OC)c3)c3c4ccccc4n(C)c3c2=O)cc1
2% | Cc1ccccc1N(C)C(=O)c1noc2c1COc1ccccc1-2
30% | CCOc1ccc(CNC(=O)Cn2cc3c(n2)-c2c(oc(C(=O)N4CCCC4)c2C)CC3)cc1
? | O=C(CCn1cnnn1)Nc1cc(C(F)(F)F)cc(C(F)(F)F)c1
-27% | COc1ccc(NC(=O)Nc2sc3nc4n(c(=O)c3c2C)CCC(C)CC4)cc1OC (stereo not drawn)
1% | Cc1ccccc1NC(=O)CSC1=Nc2ccccc2C2=NC(CCC(=O)NCc3ccccc3)C(=O)N12 (stereo not drawn)

Continued.
miR-21 FLuc | mol
-1% | COc1cc(/C=C/c2nc3cc(Cl)ccc3c(=O)n2-c2cccc(C(F)(F)F)c2)cc(OC)c1OC
-32% | COc1ccc(CNC(=O)c2ccc(CNS(=O)(=O)c3ccc(OC)cc3)cc2)cc1
2% | COc1ccccc1CN1CCN(C2CCN(C(=O)NC(C)C)CC2)C(=O)C1=O
1% | O=S(=O)(NCC(c1ccco1)N1CCN(c2ccccc2)CC1)c1ccccc1 (stereo not drawn)
-1% | COc1ccc2oc(=O)c(-c3nc(-c4cc(OC)c(OC)c(OC)c4)no3)cc2c1
0% | Cc1ccccc1C(=O)Nc1nnc(S(=O)(=O)N2CCCc3ccccc32)s1
-5% | COc1ccc(C)cc1NC(=O)C(CCSC)NS(=O)(=O)c1ccc2c(c1)oc(=O)n2C (stereo not drawn)
13% | Cc1ccc2c(C)c(C(=O)N(Cc3ccc(Cl)cc3)C3CCS(=O)(=O)C3)oc2c1 (stereo not drawn)
3% | Cc1cccc(N2CCN(C(=O)Cn3ncc4c5ccccc5n(C)c4c3=O)CC2C)c1 (stereo not drawn)
-3% | CCOC(=O)N1CCc2c(sc3c2c(=O)n(CCc2ccccc2)c(=O)n3Cc2c(F)cccc2Cl)C1
10% | COc1cc(-c2nnc(SCC(=O)N3CCCc4ccccc43)o2)cc(OC)c1OC
-5% | CCC(C(=O)Nc1ccc(C(=O)OC)cc1)n1nc(-c2ccc(C)c(C)c2)ccc1=O (stereo not drawn)
-18% | CCOC(OCC)c1cn(Cc2ccc3c(c2)C(=O)c2ccccc2C3=O)nn1
-1% | Cc1[nH]c2ccccc2c1C(=O)C(=O)NC1CC(=O)N(c2cccc(F)c2)C1 (stereo not drawn)
-6% | Cc1noc(-c2ccc(-c3noc(-c4ccc([N+](=O)[O-])c(C)c4)n3)cc2)n1
-6% | CCc1cccc(NC(=O)Cn2c(=O)ccc3cc(S(=O)(=O)N4CCC(C)CC4)ccc32)c1
-6% | CC1=C(C(N)=O)C(c2cccc(C)c2)n2nc(-c3cccc(C)c3)nc2N1 (stereo not drawn)
27% | Cc1ccc(CCNC(=O)C(C)n2nc(C)c3c(C)n(-c4ccc(C)cc4)nc3c2=O)cc1 (stereo not drawn)
0% | COc1ccc(C(=O)c2c(N)c(-c3nc(-c4ccc5c(c4)OCO5)cs3)c3ccccn23)cc1
14% | O=C(CN1C(=O)CSc2ccc(S(=O)(=O)N3CCCCC3)cc21)NCc1ccc(F)cc1Cl
-4% | Cc1ccccc1-c1nnc(CN2CCN(c3ccccn3)CC2)o1
9% | O=C(Nc1ccc(F)c(Cl)c1)N1CC=C(c2c[nH]c3ccccc23)CC1
-7% | COc1ccc(CNC(=O)Cn2nnc(-c3ccc(S(C)(=O)=O)cc3)n2)cc1
? | CCN1CCN(c2cc(C)c3cc(NC(=O)c4cc(Cl)ccc4OC)ccc3n2)CC1
0% | Cc1ccc(C)c(NC(=O)Cn2c(=O)n(-c3ccccc3C)c(=O)c3c2c2cc(C)ccc2n3C)c1
-1% | COC(=O)c1cc(NC(=O)CCc2c(C)nc3nc(C)nn3c2C)cc(C(=O)OC)c1
6% | Cc1cccc(C)c1NC(=O)CSCc1cnn(-c2ccccc2)c1-n1cccc1
0% | Cc1ccc(CCNC(=O)CCCn2nc(C)c3c(C)n(-c4ccccc4)nc3c2=O)cc1
0% | CC(C)(C)C(=O)Cn1c(=O)n(-c2ccc(Cl)c(Cl)c2)c(=O)c2c3c(sc21)CCCC3
-2% | COc1cc(OC)c(NC(=O)Cc2c(C(=O)O)c(C)cn2C)cc1Cl

Compound activity from PubChem BioAssay.
